ALR H2O2 inh: inhibitors of human sulfhydryl oxidase ALR | P55789 | purified ALR, DTT oxidation, H2O2 HRP-luminol luminescence | inhibition, % (concentration not given with the values) | 290,000 tested, 3.8% active;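 active = mean and each replicate at 75% or more; inconclusive = only one of the two met; inactive = neither met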;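 note: stock transfer was 7.5 nL into about 7.5 µL; 0% = neutral wells and 100% = wells with inactivated enzyme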
Target sequence (P55789 whole entry, looked up): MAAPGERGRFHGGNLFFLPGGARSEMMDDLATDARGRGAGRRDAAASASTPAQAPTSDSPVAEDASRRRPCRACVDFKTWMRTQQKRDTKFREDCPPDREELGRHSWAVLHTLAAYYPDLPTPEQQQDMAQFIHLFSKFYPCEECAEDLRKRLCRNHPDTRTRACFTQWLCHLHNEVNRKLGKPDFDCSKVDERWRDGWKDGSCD
Ecoli rRNA inh: inhibits bacterial ribosomal RNA function over humanized ribosomes. AID 720706. E. coli WT GFP vs humanized-ribosome RFP mutants, fluorescence, 24 h; hits give low values; DMSO median 0, no signal -100. 350,000 tested, 1.6% active. GFP signal change (wild-type ribosome), % (test concentration not listed);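 active = significant combined selectivity score with lowered wild-type GFP, culture density cut under 30%, mutant RFP and density less affected; inactive = any of these conditions unmet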; note: one replicate is shown; some compounds called inactive have numbers as strong as hits
Vif A3G: HIV-1 Vif–A3G interaction blockers – biochemical, TR-FRET, GST-Vif 1-94, biotin-A3G peptide, dose response retest, primary screen (AID 1117319). 260,000 tested, 0.57% active. TR-FRET GST-Vif / biotin-A3G peptide binding; higher % means a stronger effect; test concentration not given here; strong numbers were not always called active. inhibition, %; hits with a dose series show IC50 in µM;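 active = above the screen mean plus three standard deviations and confirmed in dose response; inconclusive = results disagree or hit not tested in dose response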;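 note: Vif residues 1-94 fused to GST binding biotinylated APOBEC3G peptide 110-148; 0% = full assay without inhibitor and 100% = GST in place of GST-Vif; retest series ran down from 100 µM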
MLL AF4-AF9 inh: blocks AF4 peptide binding to human AF9; inhibition, % at 10 µM; AID 651704; P42568; AlphaScreen, biotin-AF4 peptide binding to FLAG-AF9; 350,000 tested, 0.47% active;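 active = every replicate reaching a set inhibition limit, whatever the replicate mean, cut at about 25% in these data; inconclusive = mean inhibition reaches that limit but some replicates miss it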;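 note: 0% = plate neutral control median and 100% = total signal loss; the record names both 10 and 1 µM as test concentration; the first replicate is given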
HNF4A DNA FP: change in binding of human HNF4 alpha to DNA; P41235; HNF4a-FITC DNA binding, fluorescence polarization, 1 h; activity change, % at 10 µM; 360,000 tested, 0.3% active; AID 1224865; in the data active = activity change above about 30%, passing the limit was not always enough;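 note: controls were the assay level and a saturating level of protein; the project sought stronger binding though the title names inhibitors; some compounds called inactive have numbers as strong as hits; positive values seem to mean higher polarization but the record does not say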
Target sequence (P41235 whole entry, looked up): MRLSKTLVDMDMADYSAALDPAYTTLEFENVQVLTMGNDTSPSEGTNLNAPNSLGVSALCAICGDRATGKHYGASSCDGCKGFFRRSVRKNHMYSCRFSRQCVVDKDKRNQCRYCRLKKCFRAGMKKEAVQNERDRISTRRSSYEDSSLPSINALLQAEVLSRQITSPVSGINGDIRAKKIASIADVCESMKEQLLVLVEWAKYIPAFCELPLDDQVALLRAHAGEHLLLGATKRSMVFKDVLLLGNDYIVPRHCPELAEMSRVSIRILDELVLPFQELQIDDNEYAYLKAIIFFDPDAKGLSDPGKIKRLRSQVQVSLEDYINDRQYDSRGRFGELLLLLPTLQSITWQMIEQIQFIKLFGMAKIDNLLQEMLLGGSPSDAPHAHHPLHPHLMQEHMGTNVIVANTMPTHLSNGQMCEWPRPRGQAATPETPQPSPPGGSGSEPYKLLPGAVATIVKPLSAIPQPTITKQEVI
FGF22 binding: binders of recombinant human FGF22 by thermal shift | Q9HCT0 | 340,000 tested, 1.5% active | calls only at 9.99 µM | SYPRO orange fluorescence; percent of sucrose octasulfate shift, DMSO zero;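 active = melting point raised past a set limit in the mean and every replicate; inconclusive = no clear call; three in four hits are not shown here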
Target sequence (Q9HCT0 whole entry, looked up): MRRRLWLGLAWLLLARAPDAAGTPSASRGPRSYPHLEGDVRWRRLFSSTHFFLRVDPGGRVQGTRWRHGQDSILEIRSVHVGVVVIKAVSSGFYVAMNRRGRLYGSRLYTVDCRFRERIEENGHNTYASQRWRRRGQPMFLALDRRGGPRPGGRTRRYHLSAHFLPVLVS
Ecoli growth: E. coli growth inhibition; Escherichia coli growth, OD600, 23 h; hits give low values; OD600 absorbance (test concentration not listed); 330,000 tested, 0.21% active; AID 1053175;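 active = OD600 absorbance below the run mean of sample wells minus 3.6 SD, in any replicate, cut at about 0.56 in these data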;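 note: stock transfer was 300 nL into about 60 µL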
Ecoli rRNA inh OD600: also measured in Ecoli rRNA inh; calls as there; OD600 change, %; measured here: OD600 growth;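 optical density of the mix in the first replicate; 0 = DMSO median and -100 = no signal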
Ecoli rRNA inh RFP: further read-out of Ecoli rRNA inh, marked with its call; RFP signal change, %; measured here: RFP humanized mutant strains;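 first replicate; 0 = DMSO median and -100 = no signal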
* marks the source's active call; other numbers are inactive results; i = inactive; ? = inconclusive; / = not tested or not shown. Only part of the results is shown; the hit share may differ from the screen's.

Screens in order: ALR H2O2 inh, Ecoli rRNA inh, Ecoli rRNA inh OD600, Ecoli rRNA inh RFP, Vif A3G, MLL AF4-AF9 inh, HNF4A DNA FP, FGF22 binding, Ecoli growth
- Cc1n[nH]c(=O)nc1N/N=C/c1ccc(O)c([N+](=O)[O-])c1
 : /, 9, 12, -7.6, /, -0.3, 1.5, i, /
- O=C(Sc1n[nH]c(=O)[nH]c1=O)c1ccccc1
 : /, /, /, /, -42%, 8.9, 0.0, i, /
- Cc1ccc(C(=O)NCc2ccccn2)o1
 : -10, /, /, /, 31%, -0.9, -5.9, i, 0.73
- CCOc1cc(/C=C2/C(=N)N3N=C(CC)SC3=NC2=O)ccc1OC(=O)c1ccco1
 : 19, 7, 7, -1.8, /, -2.0, 5.2, i, 0.69
- Cc1noc(C)c1S(=O)(=O)N(C)C[C@H]1Oc2ccc(NC(=O)Nc3ccc4c(c3)OCO4)cc2CC(=O)N([C@H](C)CO)C[C@H]1C
 : /, 0, -6, -0.3, /, 6.5, /, i, /
- COc1ccc2c3c([nH]c2c1)[C@H](CO)N(Cc1cc(F)ccc1F)CC31CN(C)C1
 : /, 1, -6, 9.8, /, 2.4, /, i, /
- CCOC(=O)C1=CCN(S(=O)(=O)c2ccccc2Br)C1c1ccc(Cl)c(Cl)c1 (configuration not stated)
 : /, -3, 4, 1.6, /, 1.0, -0.3, i, /
- O=C(CN1CCCCCC1)N1c2ccccc2C=Cc2ccccc21
 : /, 16, 11, 5.4, -3%, /, 0.8, /, 0.64
- Cc1noc(C)c1NC(=O)N(C)C[C@@H]1OCCCC[C@@H](C)Oc2ccc(NC(=O)CCC(F)(F)F)cc2C(=O)N([C@@H](C)CO)C[C@H]1C
 : /, 4, 7, -0.6, /, -1.2, /, i, /
- CCOC(=O)[C@@H]1[C@H]2COc3ccc(Br)cc3[C@@H]2N2C(=O)N(c3ccc(OC)cc3)C(=O)[C@@]12C
 : 4, 1, 3, 1.7, /, /, -2.5, i, /

Carrying on.
Screens in order: ALR H2O2 inh, Ecoli rRNA inh, Ecoli rRNA inh OD600, Ecoli rRNA inh RFP, Vif A3G, MLL AF4-AF9 inh, HNF4A DNA FP, FGF22 binding, Ecoli growth
- CCn1c(SCC(=O)Nc2ccc(N(C)C)cc2)nnc1C1CC1
 : 99*, 2, 1, -2.4, /, 4.6, 0.1, i, 0.65
- O=C(CSc1n[nH]c(-c2ccccc2)n1)c1ccccc1
 : 97*, -10, -29, -0.2, -1%, 0.4, -4.0, i, 0.72
- OCCNc1nc(N2CCN(c3ccccc3)CC2)nc2ccccc12
 : 98*, 0, 4, -1.7, /, 8.7, 3.2, i, 0.7
- O=C(CN(c1cc(C(F)(F)F)ccc1Cl)S(=O)(=O)c1ccccc1)NCc1cccnc1
 : -17, /, /, /, 5%, -0.8, 0.5, i, 0.68
- Cc1ccc(C)c(OCCC(=O)OCC(=O)Nc2ccc(N3CCOCC3)cc2)c1
 : 19, 2, 10, 1.6, 2%, -5.6, -0.8, i, 0.68
- CCC(=O)N(C)C[C@@H]1Oc2cc(-c3ccccc3)ccc2S(=O)(=O)N([C@@H](C)CO)C[C@H]1C
 : /, -5, -12, -3.1, /, 0.6, /, i, /
- CCCOc1ccc(-c2c(C(=O)N/N=C(\C)c3ccncc3)nnn2-c2nonc2N)cc1
 : 0, 1, 5, -0.6, /, 0.3, -0.4, i, /
- Cc1nnc2sc(SCC(=O)Nc3cccc(Cl)c3)nn2c1=O
 : 98*, 1, -1, 0.1, -11%, -2.2, 0.1, i, 0.7
- Cc1nnc(SCC(=O)N2CCN(c3ccccc3)CC2)n(N)c1=O
 : 32, 1, -1, -0.5, 9%, -1.3, -0.4, /, 0.72
- CC1(C(=O)Nc2cccc(Oc3ccccc3)c2)Cc2c(-c3ccc4c(c3)OCO4)ccnc2O1 (configuration not stated)
 : /, 4, 16, 1.9, /, -3.5, 2.3, i, /

Carrying on.
Screens in order: ALR H2O2 inh, Ecoli rRNA inh, Ecoli rRNA inh OD600, Ecoli rRNA inh RFP, Vif A3G, MLL AF4-AF9 inh, HNF4A DNA FP, FGF22 binding, Ecoli growth
- C[C@H](CO)N1C[C@H](C)[C@H](CN(C)CC2CCCCC2)Oc2ccc(NC(=O)NC3CCCCC3)cc2CC1=O
 : /, -13, -38, 17, /, 0.0, /, i, /
- CNC(=O)C[C@H]1CC[C@H]2[C@H](COc3ccc(NC(=O)c4ccccc4Cl)cc3C(=O)N2C)O1
 : /, 1, 6, 2.3, /, -1.6, /, i, /
- Cc1ccccc1NC(=O)CCN1C(=O)CSC1=O
 : /, /, /, /, 3%, /, 0.9, /, 0.68
- O=c1ccn(Cc2ccccc2)cc1
 : /, 7, 6, 0.2, /, -0.5, 4.0, i, 0.69
- COc1ccc(C2C3=C(CC(C)(C)CC3=O)N(CCN3CCOCC3)C3=C2C(=O)CC(C)(C)C3)cc1
 : 4, 6, 2, -2.5, 16%, 2.5, -1.3, i, 0.69
- COc1ccc(CCNC(=O)C(=O)NCC2CCCN2S(=O)(=O)c2cccs2)cc1 (configuration not stated)
 : -14, 6, 11, 9.5, -1%, -0.1, 1.6, i, 0.61
- COc1cc(C)c(S(=O)(=O)Nc2ccccc2F)cc1C
 : 2, /, /, /, ?, /, -0.4, /, 0.72
- CCOc1cc(/C=C/C(=O)OCC(=O)NCC2CCCO2)cc(Cl)c1OC (configuration not stated)
 : 29, -9, -48, -23, -3%, -0.5, 7.9, i, 0.7
- COc1cc(CC(NC(C)=O)C(=O)NC2CCN(c3c4c(nc5ncnn35)CCC4)CC2)cc(OC)c1 (configuration not stated)
 : 2, /, /, /, -3%, /, /, /, 0.7
- C[C@H]1CN([C@@H](C)CO)C(=O)Cc2cc(NC(=O)Nc3cccc4ccccc34)ccc2O[C@@H]1CN(C)Cc1ccc(C(F)(F)F)cc1
 : /, 6, -3, -2.7, /, 0.5, /, i, /

The results go on.
Screens in order: ALR H2O2 inh, Ecoli rRNA inh, Ecoli rRNA inh OD600, Ecoli rRNA inh RFP, Vif A3G, MLL AF4-AF9 inh, HNF4A DNA FP, FGF22 binding, Ecoli growth
- CC(=O)N(C)C[C@H]1Oc2cc(-c3ccc(C)cc3)ccc2S(=O)(=O)N([C@@H](C)CO)C[C@H]1C
 : /, -5, -14, 0.7, /, -4.9, /, i, /
- O=C1c2ccccc2C(c2nnnn2Cc2ccccc2)N1CCCn1ccnc1 (configuration not stated)
 : /, 19, 9, 2.2, /, -0.1, -6.7, i, /
- CC(=O)c1ccc(C(=O)NC2CCCN(Cc3ccc(Cl)cc3)C2)s1 (configuration not stated)
 : -8, -3, -5, 1.3, /, -0.9, 2.9, i, 0.7
- C[C@@H]1CN([C@@H](C)CO)C(=O)c2cccc(NC(=O)C3CC3)c2O[C@@H]1CN(C)Cc1ccc(C(=O)Nc2ccccc2N)cc1
 : /, -2, 2, -2.9, /, 3.6, /, i, /
- Cc1ccc(S(=O)(=O)Nc2ccc3c(c2)C(=O)N([C@@H](C)CO)C[C@H](C)[C@@H](CN(C)S(=O)(=O)c2cccs2)O3)cc1
 : /, -5, -9, 4.0, /, -0.4, /, i, /
- CC1=C(C(N)=O)C(c2cccnc2)n2nc(-c3cccc(C)c3)nc2N1 (configuration not stated)
 : -4, /, /, /, -6%, /, -2.1, /, 0.69
- Cc1ccc(-c2ccc([C@H]3[C@H](CO)N4CCCCN(C)C[C@@H]34)cc2)cc1
 : /, 3, 0, -2.7, /, 7.2, /, i, /
- CN1N=C(C(=O)NC2CCCc3c2cnn3-c2ccc(F)cc2F)CCC1=O (configuration not stated)
 : -7, 1, 1, -1.4, /, -9.5, -3.6, i, 0.74
- Cc1cc(NC(=O)C(C)SCC(=O)N(C)CC(=O)Nc2ccc(F)cc2)no1 (configuration not stated)
 : -2, 9, 26, -1.0, 11%, 1.1, 1.3, i, 0.71
- CCOC(=O)c1ccc(NC(=O)Cn2cc3c(n2)CCC(C)C3)cc1 (configuration not stated)
 : -4, 14, 20, 0.4, 1%, -2.8, -3.2, i, 0.79

Going on with the list.
Screens in order: ALR H2O2 inh, Ecoli rRNA inh, Ecoli rRNA inh OD600, Ecoli rRNA inh RFP, Vif A3G, MLL AF4-AF9 inh, HNF4A DNA FP, FGF22 binding, Ecoli growth
- Cc1noc(C)c1NC(=O)Nc1ccc2c(c1)CC(=O)N([C@@H](C)CO)C[C@H](C)[C@@H](CN(C)C(=O)Nc1c(C)noc1C)O2
 : /, 1, 4, -1.6, /, -0.4, /, i, /
- C[C@@H]1CCCCO[C@@H](CN(C)CC2CC2)[C@H](C)CN([C@H](C)CO)C(=O)c2cc(NC(=O)CCC(F)(F)F)ccc2O1
 : /, 1, 12, -0.9, /, -1.5, /, i, /
- CCOC(=O)N1CCN(C(=S)Nc2ccc3nc(N4CCN(CC)CC4)cc(C)c3c2)CC1
 : -1, -3, -1, -0.5, 5%, 14, 1.3, i, 0.68
- CO[C@@H](CN(C)C(=O)c1cc(Cl)cc(Cl)c1)[C@H](C)CN(C(=O)Nc1ccc(F)cc1)[C@H](C)CO
 : /, -8, -20, -0.3, /, 1.9, /, i, /
- Nc1ccc(CC(N)c2csc(Nc3cc(Oc4ccccc4)ncn3)n2)cc1 (configuration not stated)
 : /, -2, 0, 3.3, /, 25*, 0.4, i, /
- COc1ccc(CNS(=O)(=O)c2ccc(F)c(C(=O)Nc3ccc(OC)cc3)c2)cc1
 : 0, -9, 1, 0.7, 5%, 0.1, -1.8, i, 0.71
- COc1ccc2[nH]cc(CCCN3C(=O)c4ccccc4C3=O)c2c1
 : 2, /, /, /, ?, /, 0.6, /, 0.7
- COCC#Cc1cnc2c(c1)C(=O)N([C@@H](C)CO)C[C@H](C)[C@@H](CN(C)C(=O)Nc1c(C)noc1C)O2
 : /, -2, 1, -1.7, /, -7.7, /, i, /
- OCc1c[nH]c(=S)n1CCOc1cccc(C(F)(F)F)c1
 : /, -1, -4, 0.2, -2%, -2.2, 0.9, i, 0.63
- O=C(CSc1nnc(CNC(=O)c2cccc(C(F)(F)F)c2)o1)NCC1CCCO1 (configuration not stated)
 : -6, 5, 7, -1.8, -7%, -2.2, -0.9, i, 0.71

Following part.
Screens in order: ALR H2O2 inh, Ecoli rRNA inh, Ecoli rRNA inh OD600, Ecoli rRNA inh RFP, Vif A3G, MLL AF4-AF9 inh, HNF4A DNA FP, FGF22 binding, Ecoli growth
- CC(C)(C)[S@@](=O)N1Cc2cc(C(=O)NC3CCCC3)nc(-c3cccc(Br)c3)c2[C@H]1CCO
 : /, -4, -14, 27, /, 1.3, /, i, /
- COc1ccccc1NC(=O)c1sc2ncn(Cc3ccccc3C)c(=O)c2c1C
 : -2, 11, 7, 2.8, -29%, 3.2, 15, i, 0.68
- Cc1ccc(S(=O)(=O)Nc2ncnc3sc(C)c(C)c23)cc1
 : /, 2, -8, 1.0, ?, 3.0, 4.5, i, 0.65
- Fc1cccc(Nc2ncnc3sccc23)c1
 : -2, 6, 0, 2.4, -7%, 0.1, 4.4, i, /
- FC(F)(F)c1nc(NCC2CCCO2)c2nnn(Cc3ccccc3Cl)c2n1 (configuration not stated)
 : -1, 4, 12, 4.6, /, 0.7, -0.2, i, 0.72
- CCCNC(=O)C[C@H]1CC[C@H]2[C@@H](COC[C@H](O)CN2C(=O)Nc2c(C)noc2C)O1
 : /, -3, 7, -4.8, /, -1.2, /, i, /
- CC(c1nnc(SCC(=O)N2CC(=O)Nc3ccccc32)n1Cc1ccccc1)N(C)C (configuration not stated)
 : -7, /, /, /, 1%, /, 1.9, /, 0.73
- O=C(N/N=C\c1ccc(F)cc1)c1ccc(Cn2cc(Br)c([N+](=O)[O-])n2)o1
 : 11, -9, -3, -8.4, /, 12, -2.8, i, /

Source: PubChem BioAssay
